From PubChem BioAssay
Ab BasE inh: BasE siderophore enzyme inhibitors, primary screen, biochemical, Acinetobacter baumannii ATCC 17978, fluorescence polarization. inhibition, % (test concentration not listed). purified BasE, fluorescence polarization binding displacement. hit rate 0.1% among 84,000. AID 485350, 2010;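 active = both replicates above 25% with normal brightness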;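 also: 0% = negative plate control signal and 100% = positive plate control signal; stock transfer was 100 nL into about 30 µL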
KSHV LANA nucl: inhibitors of KSHV LANA-nucleosome binding, primary screen, biochemical, fluorescence polarization, FITC-LANA1-23, chicken nucleosomes; z-score (test concentration not listed); FITC-LANA1-23 / chicken nucleosome fluorescence polarization; active compounds read low; hit rate 0.3% among 51,000;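 active = both repeat wells score below -2 in polarization z-score versus plate sample wells, excluding overly bright wells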;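 also: 100 nL library stock added to about 30 µL; numbers are from one replicate; some results filed as inactive read as strong as hits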
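System – purified chicken nucleosomes with FITC-labelled LANA N-terminal peptide (1-23) · Amount – 240 nM purified chicken nucleosomes (480 nM peptide binding sites), final · Also added – 50 nM FITC-LANA1-23 probe · Medium – TEN-BT buffer, pH 7.5 · Incubation – compound with peptide–nucleosome mix 10–45 min at room temperature · Detection – fluorescence polarization, ex 480 nm, em 535 nm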
* = called active by the depositor; . = no result given; & = joins results of further samples. The list is partial (hit frequency here may not be typical).

The opening 2 records, to show the layout:
SMILES	Ab BasE inh	KSHV LANA nucl
Cc1cc2cc(CN(CC3COCCO3)S(=O)(=O)c3ccc(F)cc3)c(=O)[nH]c2cc1C (stereo not given)	0.0	-1.3
COC(=O)c1scc2c(SCc3ccccc3)cc(C(F)(F)F)nc12	-2.8	.

The list itself, previewed entries included:
SMILES	Ab BasE inh	KSHV LANA nucl
Cc1cc2cc(CN(CC3COCCO3)S(=O)(=O)c3ccc(F)cc3)c(=O)[nH]c2cc1C (stereo not given)	0.0	-1.3
COC(=O)c1scc2c(SCc3ccccc3)cc(C(F)(F)F)nc12	-2.8	.
Nc1nnc(C2CCCC2)s1	0.9	0.19
Cc1ccc(-c2nnc(-c3cc(C(=O)NN)c(C)nc3C)o2)cc1	-0.1	.
COc1ccc(C)cc1NC(=O)CN1CCSc2ccccc21	1.2	.
CC(Nc1ccccc1)c1ccncc1 (stereo not given)	1.4	-0.94
COc1ccc(CNC2CC2)cc1	-0.2	.
CCN(CC)CC(=O)Oc1ccc(NC2=NS(=O)(=O)c3ccccc32)cc1	-1.7	0.99
CC1(C)[C@@H](OC(=O)CCC(=O)O)CC[C@]2(C)[C@H]3C(=O)C=C4[C@@H]5C[C@@](C)(C(=O)O)CC[C@]5(C)CC[C@@]4(C)[C@]3(C)CC[C@@H]12	0.8	-0.3
Cc1nc(SC(C)C(=O)Nc2c(C)n(C)n(-c3ccccc3)c2=O)nc(C)c1C (stereo not given)	1.2	.
CCN(C(=O)c1cccc(S(=O)(=O)N2CCCCC2)c1)C1CCS(=O)(=O)C1 (stereo not given)	6.5	-1.3
COc1cc2sc(=NC(=O)c3cccc(OC)c3OC)n(C)c2cc1OC	-3.4	1.3
O=C(N/N=C1\CCc2ccccc21)c1cccs1	2.4	.
Cc1nnc(N2CCCC(C(=O)NCCN3CCOCC3)C2)c2nn(-c3ccc(Cl)cc3)c(C)c12 (stereo not given)	1.2	.
CSc1cccc(NC(=O)CSc2nc3ccccc3[nH]2)c1	0.5	.
C[C@@H]1CC2C3CCC4=CC(=O)C=C[C@]4(C)[C@@]3(F)[C@@H](O)C[C@]2(C)[C@@]1(O)C(=O)COP(=O)(O)O (stereo not given in full)	-0.4	-0.3&-0.56
Cc1cccn2c(=O)c(C=NCc3ccccc3)c(NCc3ccco3)nc12	1.8	-0.64
CC[C@H]1OC(=O)[C@H](C)[C@@H](O[C@H]2C[C@@](C)(OC)[C@@H](O)[C@H](C)O2)[C@H](C)[C@@H](O[C@@H]2O[C@H](C)C[C@H](N(C)C)[C@H]2O)[C@](C)(O)C[C@@H](C)/C(=N/OCOCCOC)[C@H](C)[C@@H](O)[C@]1(C)O	.	0.43
Cc1cc(C(=O)COC(=O)C2CC2)c(C)n1-c1ccc(F)cc1	2.0	.
COCc1cc(C)nc(SCC(=O)Nc2nnc(C(F)(F)F)s2)c1C#N	-3.2	2.3
NC(=O)c1ccc[n+](CC(=O)N2CCOCC2)c1	-2.0	-0.03
O=c1[nH]cnc2sccc12	-0.3	.
COc1cccc(-c2nn(-c3cc(C(F)(F)F)ccn3)c(=O)o2)c1	3.5	0.41
CCOC(=O)c1cnn2c(C)c(Cc3cccc(F)c3)c(C)nc12	.	-0.86
O=C(CSc1ccc(S(=O)(=O)N2CCCCC2)cn1)N1CCCC1	0.3	.

5 compounds out of the list, sorted by count of non-hydrogen atoms, lowest first:
SMILES	Ab BasE inh	KSHV LANA nucl
Nc1nnc(C2CCCC2)s1	0.9	0.19
CC(Nc1ccccc1)c1ccncc1 (stereo not given)	1.4	-0.94
CSc1cccc(NC(=O)CSc2nc3ccccc3[nH]2)c1	0.5	.
CCOC(=O)c1cnn2c(C)c(Cc3cccc(F)c3)c(C)nc12	.	-0.86
CC[C@H]1OC(=O)[C@H](C)[C@@H](O[C@H]2C[C@@](C)(OC)[C@@H](O)[C@H](C)O2)[C@H](C)[C@@H](O[C@@H]2O[C@H](C)C[C@H](N(C)C)[C@H]2O)[C@](C)(O)C[C@@H](C)/C(=N/OCOCCOC)[C@H](C)[C@@H](O)[C@]1(C)O	.	0.43

Later entries.
SMILES	Ab BasE inh	KSHV LANA nucl
CC(=C1C(=O)c2ccccc2C1=O)N1CCN(c2cccc(Cl)c2)CC1	3.8	-1.3
O=C(Nc1ccc(SC(F)F)cc1)C1=COCCO1	2.6	.
Clc1ccc2nc3c4ccccc4cnn3c2c1	0.2	-1.2
CC1CN(C(=O)CSc2nc3c(cnn3-c3ccccc3)c(=O)[nH]2)CC(C)O1 (stereo not given)	-0.1	.
CSC1=C(C#N)C(c2ccc(C)cc2)CC(=O)N1 (stereo not given)	1.9	0.95
CC1=CS(=O)(=O)CC1Sc1nc2ccccc2[nH]1 (stereo not given)	0.7	.
O=C(COC(=O)C1C2CC3OC(=O)C1C3C2)Nc1ccccc1 (stereo not given)	-1.6	-0.066
O=C(c1ccc(F)cc1)C1CCN(C(=O)C2CC2)CC1	4.0	-0.24
COc1cc(OC)c(OC)cc1CN1CCN(c2ccccc2F)CC1	-1.8	0.062
COc1cc2c(cc1NC(=O)c1cccnc1)oc1ccccc12	1.0	.
COC(=O)CN(c1ccccn1)S(=O)(=O)c1ccccc1	0.6	-1.2
CCOc1cc(C(=O)CCC(=O)N(C)Cc2cccnc2)ccc1O	2.2	.
COC(=O)CCn1nc(-c2ccc(Cl)cc2)c2ccccc2c1=O	-0.1	.
Cc1c(NC(=O)CC2(CC(=O)N3CCOCC3)CCCC2)c(=O)n(-c2ccccc2)n1C	1.4	.
CC(Nc1ccc(Br)cc1)C(=O)NC1CCCC1 (stereo not given)	-0.4	.
CCSc1nsc(NC(=O)Nc2cccc(OC)c2)n1	1.8	-0.37
COc1ccc(C2NCCO2)cc1OC (stereo not given)	1.7	0.68
CC12CCC(C(=O)NC3CCCCC3)(CC1=O)C2(C)C (stereo not given)	-0.2	0.54
CC1CN(CC(=O)c2cccs2)CC(C)O1 (stereo not given)	2.2	.
CC1(C)CC(O)CC(C)(C)N1CC(O)COC1CCCCC1 (stereo not given)	1.7	-0.45
CCN1C(=O)/C(=C\c2ccsc2)SC1=S	1.6	.
O=C(/C=C/c1c(Cl)nc2sccn12)NCC1CCCO1 (stereo not given)	2.2	.
COC(=O)c1cc2c(ccn2-c2ccc(F)cc2)n1C(C)C	0.7	-0.92
c1ccc(-c2nnc(-c3ccccc3)c3nonc23)cc1	1.3	-0.74
COc1ccc(/C=C2\CC/C(=C\c3ccc(C)cc3)C2=O)cc1	1.6	.

Profiles as entered above. Order of values: Ab BasE inh, KSHV LANA nucl
Clc1ccc2nc3c4ccccc4cnn3c2c1 is entered as 0.2, -1.2
COc1cc(OC)c(OC)cc1CN1CCN(c2ccccc2F)CC1 is entered as -1.8, 0.062
COc1cc2sc(=NC(=O)c3cccc(OC)c3OC)n(C)c2cc1OC is entered as -3.4, 1.3
Cc1cc2cc(CN(CC3COCCO3)S(=O)(=O)c3ccc(F)cc3)c(=O)[nH]c2cc1C (stereo not given) is entered as 0.0, -1.3
CC(Nc1ccccc1)c1ccncc1 (stereo not given) is entered as 1.4, -0.94

(next part)
SMILES	Ab BasE inh	KSHV LANA nucl
CC(C)(C#N)Nn1cnnc1	-0.6	0.11
O=C(CN1C(=O)CCC1=O)NC(c1ccccc1)c1ccccc1	2.6	.
COc1cc(/C=N/n2cnc3c(sc(=S)n3C)c2=O)ccc1O	1.9	.
NC(=O)c1cc2c(ccc3ccccc32)oc1=O	2.1	-0.68
CN(Cc1ccccc1)C(=O)c1ccccc1NC(=O)C1CC1	3.0	-0.096
O=C(CSc1nnc(-c2ccc(S(=O)(=O)N3CCCC3)cc2)n1CC1CCCO1)NC1CC1 (stereo not given)	1.4	0.31
COc1ccc(CCNC(=O)NC2CC(=O)N(c3ccc4c(c3)OCCO4)C2)cc1OC (stereo not given)	0.8	-0.58
CC1(C)CC(=O)C2=C(C1)NC(=O)NC2c1c(O)ccc2ccccc12 (stereo not given)	1.2	.
Brc1ccc2c(c1)C=CC2	.	0.85
COc1ccccc1C1CCN(C(=O)c2cccs2)CC1	0.8	.
COC(=O)CSc1nn(-c2ccc(F)cc2)c(=S)s1	-2.0	.
Cc1ccc(S(=O)(=O)N(CCO)Cc2ccccc2)cc1	-0.2	-1
COc1ccc(-c2ocnc2C(=O)Nc2ccc(F)cc2F)cc1	-0.7	-0.77
CCOC(=O)c1cc(-c2ccccc2)n(-c2ccc(C(=O)NCc3ccco3)cc2)c1C	-0.6	-1.2
C=CCSc1nnc(N)s1	-0.8	.
CC1(C)Oc2ccc3ccc(=O)oc3c2C/C1=N/NC(N)=O	0.3	2.2
CSc1sc(C(=O)NN)cc1-c1nc(C)cs1	-1.0	.
CCSc1nnc(C2CCN(CC(=O)Nc3ccc(N4CCCCCC4)cc3)CC2)n1C	1.7	0.25
CCCN(CCC)C(=O)Cn1ncc2c(=O)oc3ccccc3c21	3.1	0.47
NS(=O)(=O)c1ccc(CCNC(=O)c2ccncc2)cc1	-3.1	.
CC(C)(C)c1ccc(C(=O)NCCC(=O)Nc2nn3cnnc3s2)cc1	0.5	.
Cc1cc(C(=O)NC2CCC(O)CC2)c(C)o1 (stereo not given)	1.8	.
Cn1nc(CC(=O)Nc2nncs2)c2ccccc2c1=O	0.3	-0.4
O=S(=O)(CCN1CCC(n2cccc2)CC1)c1ccc(F)cc1	-2.7	.
COc1ccc(C2C3=C(CCCC3=O)Nc3n[nH]c(-c4ccccc4)c32)cc1 (stereo not given)	-2.7	1.1

Other compounds follow:
SMILES	Ab BasE inh	KSHV LANA nucl
CC(C)(C)P(=NC(=S)N1CCCCCC1)(N1CCOCC1)N1CCOCC1	0.2	.
O=C(CN1CCOCC1)N(C1CCCCC1)C1CCS(=O)(=O)C1 (stereo not given)	5.0	.
CN1C(=O)NC(c2ccc(Cl)cc2)C2=C1CC(C)(C)CC2=O (stereo not given)	1.5	-0.066
CC(C)(C)C(=O)COC(=O)c1ccc(S(=O)(=O)N2CCOCC2)cc1	0.8	.
NC(=O)NCCc1ccccc1	0.7	.
O=C(CSc1nnnn1-c1ccccc1)N(C1CCCCC1)C1CCCCC1	-0.5	0.1
OC1(CCC2(O)CCCC2)CCCC1	-0.1	2.2
O=C(CCc1ccsc1)Nc1nc2ccccc2[nH]1	0.1	.
CCOC(=O)c1c(-c2ccccc2)csc1/N=C/C1C(=O)CCCC1=O	0.2	.
Cc1c(S(=O)(=O)c2ccc(Cl)cc2)csc1C(=O)N(Cc1ccccc1)Cc1cccnc1	2.9	.
Cc1[nH]c2ccc(C(=O)Oc3ccc4c(c3)OCO4)cc2c1C	0.2	.
CCC(C(=O)OC(C)C)n1cnc2sc3c(c2c1=O)CCC(C)C3 (stereo not given)	-1.2	-0.63
OCCNc1nc2ccccc2n1Cc1ccccc1Cl	0.6	.
O=C1/C(=C/c2ccc(O)cc2)CS(=O)(=O)c2ccccc21	-0.8	.
CCCN(CCC)C(=O)Cn1c(=O)n(CCCCC(=O)NC2CCCC2)c(=O)c2ccccc21	2.5	0.09
O=C(NCc1ccncc1)c1cccc(Oc2ccccc2)c1	-0.7	-0.23
C(=N\c1ncn[nH]1)/c1cccs1	0.4	0.18
COCCn1c(C)cc(C(=O)COC(=O)c2ccc(NC(=O)CC#N)cc2)c1C	-14	.
O=C1CN(Cc2nc3ccc(Cl)cc3n2CCO)c2ccccc2N1	2.3	.
O=C(CNC(=O)c1ccc(-c2ccccc2)cc1)OC1CCOC1=O (stereo not given)	1.2	.
CC(C(=O)N1CCc2ccccc21)N1CCN(S(=O)(=O)c2ccc(Cl)cc2)CC1 (stereo not given)	1.5	.
O=C(O)C1CCc2ccccc2O1 (stereo not given)	1.1	.
O=C(Nc1ccccc1)N1CCc2ccccc21	-1.0	-0.2
CC(=O)NC(=O)NCc1ccccc1	-1.9	.
O=S(=O)(Nc1ccc(N2CCCCC2)cc1)c1ccc(-c2ccccn2)s1	.	0.045

The list goes on:
SMILES	Ab BasE inh	KSHV LANA nucl
Cc1ccc(-c2ccc(NC(=O)C3C4C=CC(C4)C3C(=O)O)cc2)o1 (stereo not given)	0.3	.
CSc1ncc2c(=O)n(CC3CCCO3)ccc2n1 (stereo not given)	-1.0	-0.014
O=c1c2ccccc2nc2c3ccccc3c(N3CCOCC3)nn12	2.1	.
COc1cc(OC)c(CN2CCN(c3ccccc3C)CC2)cc1Br	1.0	-0.35
COc1ccc(/C=C/C(=O)N2CCN=C2c2ccccc2)cc1OC	4.0	.
Cc1oc2ccccc2c1CC(=O)Nc1ccc(C(F)(F)F)cc1	2.2	0.16
CC(C)NC(=S)Nc1ccc2[nH]c(=O)[nH]c2c1	2.1	.
COc1cccc(NC(=O)NCc2c(-c3ccccc3)noc2C)c1	0.4	0.032
CN(C(=S)NC(=O)C1CC1)c1ccccc1	-0.1	.
CC(=O)NC(Cc1c[nH]c2ccccc12)C(=O)OCc1nc(N)nc(Nc2ccccc2C)n1 (stereo not given)	3.0	.
Cc1ccc(F)cc1NC(=O)/C=C\C(=O)O	5.8	-0.93
Cc1nc2c(-c3ccccc3)c(C)nn2c(C)c1CC(=O)NCCN1CCOCC1	-0.1	0.024
Cc1cc(C)n(CCCNCc2ccc(OCc3csc(C)n3)cc2)n1	0.0	.
COC(=O)c1ccccc1N=C(C)C1=C(O)c2ccccc2C1=O	1.1	.
O=C(NCc1ccccc1)NCc1ccccc1	-1.1	2.2
O=c1cc(-c2ccc(F)cc2)[nH]n1-c1nc2ccccc2[nH]1	2.0	-0.74
CSc1ccc(C(=O)Nc2nnc(C3=COCCO3)o2)cc1	0.2	0.3
COc1cc2c(cc1OC)C(C)N(C(=O)c1cc3c(C)cc(C)cc3[nH]1)CC2 (stereo not given)	1.2	.
O=C(CSc1nnc(C2CC2)n1Cc1ccco1)c1ccc2[nH]c(=O)oc2c1	-0.5	.
